Screens from PubChem BioAssay.
GLA inh pH 4.5: blocks human alpha-galactosidase A at pH 4.5; activity change, negative = inhibition, % at 105 µM; purified enzyme, 4-MU-alpha-Gal fluorescence, pH 4.5; 230,000 tested, under 10 active; P06280; AID 1467; inconclusive = small, poorly fitted or top-dose-only inhibition, or a rising curve; inactive = flat fitted curve, though single readings scatter; no compound was filed as active;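 further: 0% = full activity with enzyme and -100% = basal without enzyme; dose as in the result columns while the protocol names 77 µM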
Rango release inh: inhibition of RanGTP-driven Rango-importin beta dissociation. O95149+P62826. Potency, µM (series often up to 46.1 µM), inactives show at the top dose activity change, negative = inhibition. Biochemical FRET Rango-importin beta, RanGTP-induced dissociation. actives 0.071% (n = 340,000). AID 540253; active means falling FRET ratio curve, often poorly fitted, with flat reads before Ran was added; inconclusive means other falling curves, or compound fluorescence or quenching; inactive means flat or rising ratio curve;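 further: potency means the concentration at half of the fitted maximal effect; % of control where 0% means no effect; nearly all actives have a fitted effect of over 45% in size; -100% = wells without RanGTP and RCC1; the record marks most hits as doubtful in a second field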
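FRET read at 45 min, room temperature: inhibitors block the CFP/YFP signal rise when RanGTP (0.6 uM Ran, 2 mM GTP, 0.2 uM RCC1) frees Rango (0.1 uM) from importin beta (0.25 uM). Pre-read after 5 min compound exposure flags interference.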
Rango-impB inh: Rango-importin beta binding inhibition | Q14974 | Rango CFP/YFP FRET sensor + importin beta, 45 min | Potency, µM (titrated, usually from 92.2 µM), for inactives: at the top dose inhibition of complex formation | actives 0.031% (n = 340,000) | AID 540263; active = rising FRET ratio curve, often small or poorly fitted; inconclusive = mostly compound fluorescence or quenching in the first reads; inactive = flat curves in all reads;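 further: potency means the concentration at half of the fitted maximal effect; 0% = DMSO wells and 100% = buffer wells lacking importin beta; nearly all actives have a fitted effect of over 15% in size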
Target sequence (Q14974 whole entry, looked up): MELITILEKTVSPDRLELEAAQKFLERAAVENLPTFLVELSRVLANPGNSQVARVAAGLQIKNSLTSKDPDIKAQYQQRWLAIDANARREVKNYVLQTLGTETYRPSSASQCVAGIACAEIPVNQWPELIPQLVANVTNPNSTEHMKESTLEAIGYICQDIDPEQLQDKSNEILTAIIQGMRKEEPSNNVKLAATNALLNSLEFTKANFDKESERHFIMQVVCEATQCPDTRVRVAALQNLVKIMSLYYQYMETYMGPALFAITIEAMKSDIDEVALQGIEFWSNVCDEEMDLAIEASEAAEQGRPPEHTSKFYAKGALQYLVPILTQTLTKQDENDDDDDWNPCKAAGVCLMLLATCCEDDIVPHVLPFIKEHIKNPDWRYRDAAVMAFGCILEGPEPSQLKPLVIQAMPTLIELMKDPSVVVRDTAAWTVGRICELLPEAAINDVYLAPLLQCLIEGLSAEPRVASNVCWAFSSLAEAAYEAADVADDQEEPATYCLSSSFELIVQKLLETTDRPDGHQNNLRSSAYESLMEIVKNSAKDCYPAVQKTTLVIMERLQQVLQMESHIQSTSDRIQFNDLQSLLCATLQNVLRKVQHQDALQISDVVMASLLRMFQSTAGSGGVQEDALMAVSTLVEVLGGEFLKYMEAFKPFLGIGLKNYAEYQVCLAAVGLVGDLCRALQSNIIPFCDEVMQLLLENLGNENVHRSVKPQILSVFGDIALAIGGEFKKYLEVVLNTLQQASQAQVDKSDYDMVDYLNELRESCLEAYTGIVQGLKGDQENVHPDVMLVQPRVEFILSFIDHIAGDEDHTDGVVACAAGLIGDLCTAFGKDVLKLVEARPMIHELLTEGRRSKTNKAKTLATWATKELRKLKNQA
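FRET biosensor Rango (snurportin 1 IBB between N-terminal EYFP and C-terminal Cerulean), 50 nM in PBS/1 mM DTT/0.02% Tween-20/0.1% BSA, preincubated 5 min RT with compound; 0.125 microM importin beta added, 45 min RT, CFP/YFP FRET ratio read.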
miR-21 FLuc: miR-21 reporter, rising signal | HeLa miR-21 FLuc reporter, luciferase, 48 h | Potency, µM (top dose mostly 38.3 µM), without a hit: at the highest dose reporter change, positive = more light | 340,000 tested, under 10 active | AID 2288; active = well fitted rising curve with a large enough effect; inconclusive = small, poorly fitted or top-dose-only effect; inactive = no such curve, though single readings can be large or run the other way;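 further: % of control where 0% means no effect; miR-21 action dims this reporter so a rising signal means less miR-21 action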
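HeLa cells stably expressing CMV-driven firefly luciferase with a downstream miR-21 binding sequence, endogenously expressing miR-21, were treated with titrations (up to about 40uM final) for 48 hours at 37 degree Celsius. Luciferase luminescence was read after lysis.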
* hit, by the source's call; ? = inconclusive; · = not tested or not shown; & = joins results of further samples.

Rango-impB inh,Rango release inh,GLA inh pH 4.5,miR-21 FLuc,compound
12%,8%,-8,-2%,CCCCC1=NN(C(=O)c2cccnc2)C(O)(C(F)(F)F)C1 (stereo unspecified)
-2.6%,13%,·,17%,COc1ccc2[nH]c(=O)c(CN(c3ccccc3OC)S(=O)(=O)c3ccccc3)cc2c1
0.8%,15%,·,·,Cc1ccc(S(=O)(=O)N2CCOCC2)cc1C(=O)NC1CCN(Cc2ccccc2)CC1
-0.5%,1%,-9,-1%,COc1ccccc1CN(CC(=O)NCc1ccc2c(c1)OCO2)C(=O)c1ccc2c(c1)OCCO2
6.8%,3%,-1,0%,Cc1cc(NC(=O)Cn2nc(C(F)(F)F)c3c2CCC3)n(-c2ccccc2)n1
4.0%,3%,9,-2%,COc1ccc(CCN(C)C(=O)C2CCN(Cc3ccc(C)cc3)CC2)cc1OC
0.2%,-6%,1,-2%,CCOC(=O)N1CCN(C(=O)Cn2ncn3nc(-c4cccs4)cc3c2=O)CC1
3.7%,17%,·,·,Cc1ccc(C2(C)NC(=O)N(CC(=O)Nc3ccc4c(c3)CCC4)C2=O)cc1 (stereo unspecified)
1.6%,20%,·,·,C#CCOCCOCCOCCNc1nc(N2CCN(C(=O)[C@H]([C@@H](C)O)n3cc(CCCCN)nn3)CC2)nc(N2CCN(C(=O)[C@H]([C@@H](C)CC)n3cc(CCCCN)nn3)CC2)n1
-2.3%,10%,-7,-11%,CS(=O)(=O)N(CC(N)=O)c1ccc(F)c(Cl)c1

Other records
Rango-impB inh,Rango release inh,GLA inh pH 4.5,miR-21 FLuc,compound
?,-7%,6,-32%,COCCn1nnnc1CN(CCc1ccc(OC)c(OC)c1)Cc1cc2ccc(C)cc2[nH]c1=O
-0.5%,-7%,-2,-23%,Nc1nnnn1/N=C/c1cccc(OCc2ccccc2Cl)c1
5.2%,6%,-1,-6%,CCN(CC)CCNC(=O)c1c(C)oc2cc(Br)c(OC)cc12
-6.0%,14%,·,0%,Cc1ccc(S(=O)(=O)NC(C)C(=O)NC(C)c2cccs2)cc1 (stereo unspecified)
-3.0%,6%,-2,-6%,O=C(c1ccc(Cl)cc1)N1CCN=C1c1ccccc1
-5.5%,-6%,·,·,CSCCC(NC(=O)c1ccccc1Cl)C(=O)N1CCCCCCC1 (stereo unspecified)
0.0%,-2%,7,-14%,Cc1ccccc1NCCNc1ccccc1C
-4.0%,-6%,1,-38%,O=C(Nc1nc(-c2ccccc2)cs1)c1ccco1
-1.8%,7%,·,-2%,O=C(O)CSc1nnc(COc2ccc(Br)cc2)n1-c1ccccc1
?,?,3,-5%,Oc1c(C=Nc2ccccc2)sc2ccccc12

Other structures
Rango-impB inh,Rango release inh,GLA inh pH 4.5,miR-21 FLuc,compound
·,·,-5,-3%,Cn1c2ccccc2c(=O)c2c(=O)n(Cc3ccco3)c(-c3ccc(Cl)cc3Cl)nc21
·,·,-1,-9%&-3%,CCOc1ccc(NC(=O)c2cc3cc4ccc(C)cc4nc3o2)cc1
-1.1%,-9%,11,-11%,Cc1cc(=O)oc(C)c1C(=O)NCCCN1CCN(c2ccc(F)cc2)CC1
0.1%,-8%,-1,2%,COc1ccc2c(=O)c3c(=O)n(CCc4ccccc4)c(C(C)C)nc3oc2c1
-0.7%,11%,·,2%,CC(=O)c1c(C)oc2ccc(NS(=O)(=O)c3ccc(C)cc3)cc12
3.7%,0%,·,-14%,COc1ccc(C(=O)Nc2ccc(OC)c([N+](=O)[O-])c2)cc1Br
-1.4%,-4%,-2,-3%,CC1(C)CC(=O)c2cc(O)ccc2O1
3.8%,-1%,-6,-5%,OC(COc1cccc2ccccc12)CN1CCN(c2ccccc2)CC1 (stereo unspecified)
-0.3%,2%,1,-1%,COc1ccccc1CNC(=O)C1CC2Cn3c(nc4ccccc43)C2N1C (stereo unspecified)
0.2%,0%,-5,0%,CC(=O)N1CCN(CC(=O)Nc2c(Cl)cccc2Cl)CC1

New compounds follow
Rango-impB inh,Rango release inh,GLA inh pH 4.5,miR-21 FLuc,compound
-5.5%,3%,-1,-3%,COc1ccc(CCNC(=O)COC(=O)c2ccc[nH]c2=O)cc1
0.7%,-3%,?,-8%,N#C/C(=C\c1cn[nH]c1-c1ccccc1Br)C(=O)O
-1.6%,-9%,0,-1%,O=C(NCc1ccccc1Cl)c1ccc(Br)o1
-0.2%,?,2,-9%,C=CCN1C(=O)/C(=C2\SC(N3CCOCC3)=NC2=O)c2cc(Br)ccc21
0.0%,6%,3,-6%,COC(=O)NNC(=O)CCCOc1ccc(Cl)cc1Cl
-3.8%,-1%,-16&-7,12%,Cc1cccc(CN2CCN(C(c3ccccc3)c3ccc(Cl)cc3)CC2)c1 (stereo unspecified)
0.0%,-5%,-10,-1%,COc1cc2[nH]c(=S)n(Cc3ccc(F)cc3)c(=O)c2cc1OC
-1.9%,-1%,-4,-12%,Cc1cc(=O)oc2cc(Oc3ncccn3)ccc12
-0.8%,6%,3,0%,O=C(c1ccco1)N(Cc1ccc([N+](=O)[O-])cc1)c1ccc(Br)cc1
1.0%,1%,·,·,O=c1n(CC2CO2)c(=O)n(CC2CO2)c(=O)n1CC1CO1 (stereo unspecified)

Rewritten in markdown: part of the list above
| SMILES | Rango-impB inh | Rango release inh | GLA inh pH 4.5 | miR-21 FLuc |
| --- | --- | --- | --- | --- |
| C=CCN1C(=O)/C(=C2\SC(N3CCOCC3)=NC2=O)c2cc(Br)ccc21 | -0.2% | ? | 2 | -9% |
| COC(=O)NNC(=O)CCCOc1ccc(Cl)cc1Cl | 0.0% | 6% | 3 | -6% |
| Cc1cccc(CN2CCN(C(c3ccccc3)c3ccc(Cl)cc3)CC2)c1 (stereo unspecified) | -3.8% | -1% | -16&-7 | 12% |
| COc1cc2[nH]c(=S)n(Cc3ccc(F)cc3)c(=O)c2cc1OC | 0.0% | -5% | -10 | -1% |
| Cc1cc(=O)oc2cc(Oc3ncccn3)ccc12 | -1.9% | -1% | -4 | -12% |
| O=C(c1ccco1)N(Cc1ccc([N+](=O)[O-])cc1)c1ccc(Br)cc1 | -0.8% | 6% | 3 | 0% |
| O=c1n(CC2CO2)c(=O)n(CC2CO2)c(=O)n1CC1CO1 (stereo unspecified) | 1.0% | 1% | · | · |

The listing continues:
Rango-impB inh,Rango release inh,GLA inh pH 4.5,miR-21 FLuc,compound
?,-21%,·,·,O=C(CCc1nc2sc3c(c2c(=O)[nH]1)CCCC3)NCCOc1ccccc1
-1.4%,?,·,·,NC(=S)N1N=C(c2ccccc2)CC1=O
0.0%,-10%,-3,1%,Cn1nc(-c2ccc(C(=O)NCC3CCCO3)cc2)c2ccccc2c1=O (stereo unspecified)
0.0%,-4%,·,·,C=CC[C@@H](CC(=O)N[C@@H](CO)Cc1ccccc1)C(=O)N[C@H](COC(=O)[C@@H](CC=C)Cc1ccc(F)cc1)Cc1c[nH]c2ccccc12
0.0%,0%,·,·,O=C1c2ccccc2C(=O)N1CC1CO1 (stereo unspecified)
-1.8%,-6%,·,7%,COc1cccc(NC(=O)CCC2CCN(C(=O)c3sccc3C)CC2)c1
4.3%,4%,3,-9%,CC(C)(C)Cc1nnc(NS(=O)(=O)c2ccc(F)cc2)s1
-5.2%,27%,0,-8%,CCNC(=S)N1CCN(S(=O)(=O)c2cccc(C(F)(F)F)c2)CC1
0.0%,-12%,·,·,CCCn1c(C)cc(-c2csc(NC(=O)CCc3nc4ccccc4c(=O)[nH]3)n2)c1C
-1.5%,-3%,·,-8%,CCCCCCc1ccc(N2C[C@H](C)[C@@H](CC(=O)NCc3ccccc3)C2=O)cc1

Carrying on.
Rango-impB inh,Rango release inh,GLA inh pH 4.5,miR-21 FLuc,compound
2.5%,-7%,4,-10%,O=C(CSCc1ccccc1Cl)NN=C1CCCCCC1
0.1%,15%,·,-10%,Cc1ccc(N(CC(=O)NCc2ccco2)C(=O)CCC(=O)Nc2nccs2)c(C)c1
-2.9%,-6%,·,0%,CCOC(=O)C1CCN(C(=O)c2cccc(NC3=NC4CS(=O)(=O)CC4S3)c2)CC1 (stereo unspecified)
1.2%,0%,12,-11%,CC(C)(C)c1cc(NCc2ccccn2)n2ncc(-c3ccc(Cl)cc3)c2n1
-2.1%,-7%,-5,-2%,COc1ccc(-n2c(=O)cc(N3CCN(c4ccccc4OC)CC3)[nH]c2=O)cc1
6.0%,0%,1,-6%,CC(NC(=O)NC1CCCCC1)C(c1cccs1)N1CCN(c2ccccc2)CC1 (stereo unspecified)
0.0%,-23%,-2,-35%,COc1cccc(N/C=C/c2onc(C)c2[N+](=O)[O-])c1
-3.5%,5%,·,·,Cc1ccc(S(=O)(=O)N2CCC(C(=O)OC(C)C(=O)NC3CCCCC3C)CC2)cc1 (stereo unspecified)
0.5%,0%,-8,-15%,Cc1cc(C)n2nc(-c3cccnc3)nc2n1
0.4%,4%,2,-27%,COc1cc(CNCc2cccs2)ccc1OCc1ccccc1

(list continues)
Rango-impB inh,Rango release inh,GLA inh pH 4.5,miR-21 FLuc,compound
0.2%,-13%,5,-56%,COc1ccc(Nc2nc(CC(C)=O)ns2)cc1
-0.1%,-8%,-10,-1%,Cc1ccc(CNC(=O)CSc2nc(N3CCCCC3)nc(N3CCCCC3)n2)cc1
-0.2%,-8%,-2,-2%,CCCc1nnc(NC(=O)CCC(=O)NCCc2ccc(OC)c(OC)c2)s1
-0.2%,35%,·,·,CN(c1ccccc1)c1ncccn1
-0.5%,22%,10,-12%,COc1cccc(NC(=S)N(CCN(C)C)C(C)c2ccncc2)c1 (stereo unspecified)
1.4%,14%,5,0%,CCOC(=O)C1(Cc2ccccc2)CCCN(Cc2ccc(OCC)c(CO)c2)C1 (stereo unspecified)
-0.7%,-5%,-11,0%,Cc1sc(NC(=O)CN(Cc2ccccc2)C(=O)C2CC2)c(C(N)=O)c1C
-1.8%,7%,·,-13%,CCS(=O)(=O)N1Cc2ccccc2CC1C(=O)NCCc1ccccc1 (stereo unspecified)
-3.7%,12%,6,-6%,O=C(CCCn1c(=O)[nH]c2ccsc2c1=O)N1CCCCC1
·,·,6,7%,COc1cc(CC(=O)N/N=C/c2ccccc2)c([N+](=O)[O-])cc1OC

The listing continues.
Rango-impB inh,Rango release inh,GLA inh pH 4.5,miR-21 FLuc,compound
0.9%,-2%,·,·,c1ccc(NC2=NCCN2CCCC2CCCC2)cc1
-1.7%,-6%,4,-5%,CCC(c1nnc(SCCNCCO)n1CCN1CCOCC1)N(C)C (stereo unspecified)
-2.2%,-7%,·,-6%,COC(=O)c1ccc2c(=O)n(CCN3CCOCC3)c(SCC(=O)Nc3cccc(OC)c3)nc2c1
-0.2%,5%,·,-4%,COc1ccc(OC)c(S(=O)(=O)N2CCC(C(=O)N3CCCC3)CC2)c1
4.6%,10%,1,1%,O=C(CSc1nc(-c2ccccc2)cc(=O)[nH]1)N1CCc2ccccc21
-4.1%,1%,3,12%,O=[N+]([O-])c1ccc(NCCCNS(=O)(=O)c2ccc(Cl)cc2)c(Cl)c1
-4.4%,-8%,-9,-44%,O=C(Nc1cccc(S(=O)(=O)N2CCCCCC2)c1)c1ccc2ccccc2n1
-1.0%,-1%,-18,0%,Oc1[nH]c2ccc(Br)cc2c1N=NC(=S)NCC1CCCO1 (stereo unspecified)
-0.7%,-24%,·,0%&16%,Cc1cccc(N2CCN(C(=O)C3CCN(S(=O)(=O)c4c(C)noc4C)CC3)CC2)c1C
?,-5%,0,-5%,O=C(COC(=O)c1cccc(S(=O)(=O)N2CCc3ccccc32)c1)Nc1ccc(Cl)cn1

(further entries)
Rango-impB inh,Rango release inh,GLA inh pH 4.5,miR-21 FLuc,compound
5.1%,7%,-3,-19%,CC(=O)c1ccc(-n2c(-c3cc(-c4ccsc4)n[nH]3)n[nH]c2=S)cc1
0.3%,11%,-5,-1%,O=C(N/N=C/c1cccc([N+](=O)[O-])c1)c1cc(-c2ccc3c(c2)OCO3)n[nH]1
0.4%,-6%,-6,11%,O=S(=O)(c1ccc2c(c1)OCCO2)N1CCC(O)(c2ccc(Cl)cc2)CC1
-0.2%,-2%,6,1%,CSc1ccccc1C(=O)Nc1cccc([N+](=O)[O-])c1C
-3.4%,1%,8,1%,O=C(COC(=O)CCc1nc2ccccc2c(=O)[nH]1)NC(c1ccccc1)c1ccccc1

A portion of the library (hit frequency here may not be typical).
